Ran FRET – inhibitors of Ran–importin-beta complex formation, primary screen, biochemical, CFP-Ran/YFP-importin-beta FRET, RCC1, cell-free (AID 434961) | actives 0.2% (n = 7,700) | inhibition, % | CFP-Ran/YFP-importin-beta FRET, cell-free; hits give high values | Regulator of chromosome condensation (Homo sapiens) + GTP-binding nuclear protein Ran …;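 active = more than half of the replicate wells above 15% inhibition; inconclusive = exactly half above it; inactive = fewer than half above it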;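 note: 0% = DMSO wells and 100% inhibition = RanGDP control wells on each plate; stock of unstated strength diluted about 400-fold; mean of two wells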
* marks the source's active call; other numbers are inactive results; ? = inconclusive. A portion of the library (hit frequency here may not be typical).

mol: C[C@@H]1CN([C@H](C)CO)C(=O)Cc2cc(NS(C)(=O)=O)ccc2O[C@@H]1CN(C)C(=O)Nc1ccc(C(F)(F)F)cc1
  Ran FRET = 7.4
mol: C[C@H]1CN([C@@H](C)CO)C(=O)Cc2cc(NC(=O)NC3CCCCC3)ccc2O[C@H]1CN(C)C(=O)Nc1ccc(C(F)(F)F)cc1
  Ran FRET = 2.6
mol: C[C@@H]1CN([C@H](C)CO)C(=O)c2cc(NS(C)(=O)=O)ccc2O[C@@H](C)CCCCO[C@H]1CN(C)Cc1ccccc1
  Ran FRET = 5.9
mol: C[C@@H]1CN([C@H](C)CO)C(=O)c2cccc(NC(=O)Nc3ccc(C(F)(F)F)cc3)c2O[C@H]1CN(C)S(=O)(=O)c1cccs1
  Ran FRET = 1.3
mol: C[C@@H]1CN([C@@H](C)CO)C(=O)CCCn2cc(nn2)CO[C@H]1CN(C)S(=O)(=O)c1ccc(Oc2ccccc2)cc1
  Ran FRET = 0.8
mol: CC(C)NC(=O)N(C)C[C@H]1OCCCC[C@@H](C)Oc2ccc(NC(=O)Nc3ccc(F)cc3)cc2C(=O)N([C@@H](C)CO)C[C@H]1C
  Ran FRET = -3.0
mol: C[C@H](CO)N1C[C@H](C)[C@H](CN(C)C(=O)Nc2ccc3c(c2)OCO3)Oc2c(NS(=O)(=O)c3ccccc3)cccc2C1=O
  Ran FRET = -0.2
mol: C[C@@H]1CCCCO[C@@H](CN(C)S(=O)(=O)c2ccc(F)cc2)[C@@H](C)CN([C@@H](C)CO)C(=O)c2cc(NC(=O)Nc3ccccc3)ccc2O1
  Ran FRET = 3.6
mol: CNC[C@H]1Oc2ccc(NC(=O)CCN3CCOCC3)cc2C(=O)N([C@H](C)CO)C[C@@H]1C
  Ran FRET = 2.6
mol: C[C@@H]1CN([C@@H](C)CO)C(=O)c2cccc(NC(=O)NC3CCCCC3)c2O[C@H]1CN(C)S(=O)(=O)c1cn(C)cn1
  Ran FRET = -4.8

mol: Cc1noc(C)c1S(=O)(=O)N(C)C[C@@H]1Oc2ccc(NC(=O)Cc3ccccc3)cc2CC(=O)N([C@H](C)CO)C[C@@H]1C
  Ran FRET = 4.3
mol: C[C@H](CO)N1C[C@H](C)[C@@H](CN(C)C(=O)Nc2cccc3ccccc23)Oc2ccc(NC(=O)CCN3CCOCC3)cc2CC1=O
  Ran FRET = 0.5
mol: C[C@@H]1CN([C@@H](C)CO)C(=O)c2cccc(NC(=O)Nc3cccc4ccccc34)c2O[C@H]1CN(C)CC1CC1
  Ran FRET = -1.8
mol: C[C@H](CO)N1C[C@H](C)[C@H](CN(C)S(=O)(=O)c2ccccc2)Oc2ncc(Br)cc2C1=O
  Ran FRET = 2.6
mol: C[C@H]1CN([C@@H](C)CO)C(=O)c2cccc(NC(=O)c3ccncc3)c2O[C@@H]1CN(C)C(=O)NC1CCCCC1
  Ran FRET = 0.6
mol: C[C@@H]1CN([C@H](C)CO)C(=O)c2cc(NC(=O)C3CC3)ccc2O[C@H]1CN(C)Cc1ccc(C(=O)O)cc1
  Ran FRET = 2.5
mol: COc1ccc(S(=O)(=O)N(C)C[C@H]2Oc3ccc(NS(=O)(=O)c4ccc(Cl)cc4)cc3C(=O)N([C@H](C)CO)C[C@@H]2C)cc1
  Ran FRET = 1.2
mol: COc1ccc(NC(=O)N(C)C[C@@H]2Oc3c(cccc3N(C)C)C(=O)N([C@H](C)CO)C[C@@H]2C)cc1
  Ran FRET = 2.4
mol: C[C@H](CO)N1C[C@H](C)[C@H](CN(C)C(=O)c2ccccc2)OCCCC[C@H](C)Oc2ccc(NC(=O)Nc3ccc4c(c3)OCO4)cc2C1=O
  Ran FRET = -0.5
mol: C[C@@H]1CN([C@H](C)CO)C(=O)c2cc(NC(=O)Cc3ccccc3)ccc2O[C@@H](C)CCCCO[C@H]1CN(C)S(=O)(=O)c1cccs1
  Ran FRET = -1.0

The list goes on; the last two above are carried over.
mol: C[C@H](CO)N1C[C@H](C)[C@H](CN(C)C(=O)c2ccccc2)OCCCC[C@H](C)Oc2ccc(NC(=O)Nc3ccc4c(c3)OCO4)cc2C1=O
  Ran FRET = -0.5
mol: C[C@@H]1CN([C@H](C)CO)C(=O)c2cc(NC(=O)Cc3ccccc3)ccc2O[C@@H](C)CCCCO[C@H]1CN(C)S(=O)(=O)c1cccs1
  Ran FRET = -1.0
mol: C[C@@H]1CCCCO[C@@H](CN(C)S(=O)(=O)c2ccc(F)cc2)[C@@H](C)CN([C@H](C)CO)C(=O)c2cc(NC(=O)c3ccncc3)ccc2O1
  Ran FRET = ?
mol: Cc1noc(C)c1S(=O)(=O)N(C)C[C@@H]1Oc2ccc(N(C)C)cc2CC(=O)N([C@@H](C)CO)C[C@H]1C
  Ran FRET = 2.4
mol: CC(C)NC(=O)N(C)C[C@@H]1OCCCC[C@H](C)Oc2ccc(NS(=O)(=O)c3cccs3)cc2C(=O)N([C@H](C)CO)C[C@@H]1C
  Ran FRET = 6.0
mol: C[C@H](CO)N1C[C@H](C)[C@H](CN(C)C(=O)Nc2ccc(F)cc2)Oc2c(NC(=O)Nc3ccc(C(F)(F)F)cc3)cccc2C1=O
  Ran FRET = -1.4
mol: COc1ccc(S(=O)(=O)N(C)C[C@@H]2Oc3ccc(NC(=O)C4CC4)cc3C(=O)N([C@@H](C)CO)C[C@H]2C)cc1
  Ran FRET = 0.8
mol: C[C@H]1CN([C@@H](C)CO)C(=O)Cc2cc(NC(=O)CCN3CCOCC3)ccc2O[C@H]1CN(C)Cc1ccc(-c2ccccc2)cc1
  Ran FRET = 2.0
mol: C[C@@H]1CN([C@H](C)CO)C(=O)Cc2cc(NS(C)(=O)=O)ccc2O[C@@H]1CN(C)CC1CC1
  Ran FRET = 9.0
mol: C[C@H]1CN([C@@H](C)CO)C(=O)c2cccc(NS(C)(=O)=O)c2O[C@@H]1CN(C)C
  Ran FRET = -0.8
mol: C[C@H](CO)N1C[C@H](C)[C@H](CN(C)C(=O)Nc2ccc(F)cc2)Oc2ccc(NC(=O)C3CC3)cc2CC1=O
  Ran FRET = 5.6
mol: C[C@H]1CCCCO[C@@H](CN(C)C(=O)c2ccccc2)[C@@H](C)CN([C@@H](C)CO)C(=O)c2cc(NS(=O)(=O)c3cn(C)cn3)ccc2O1
  Ran FRET = 0.7

mol: C[C@@H]1CN([C@H](C)CO)C(=O)Cc2cc(NC(=O)Nc3ccccc3)ccc2O[C@H]1CN(C)C(=O)Nc1ccc(F)cc1
  Ran FRET = 2.7
mol: CC(C)NC(=O)Nc1ccc2c(c1)C(=O)N([C@@H](C)CO)C[C@@H](C)[C@H](CN(C)C(=O)Cc1ccccc1)OCCCC[C@@H](C)O2
  Ran FRET = 1.3
mol: COC(=O)N(C)C[C@@H]1OCc2cn(nn2)CCCC(=O)N([C@H](C)CO)C[C@@H]1C
  Ran FRET = 1.5
mol: C[C@H](CO)N1C[C@H](C)[C@H](CN(C)C(=O)Nc2cccc3ccccc23)Oc2ncc(Br)cc2C1=O
  Ran FRET = ?
mol: C[C@@H]1CCCCO[C@@H](CN(C)C(=O)Nc2ccccc2)[C@@H](C)CN([C@@H](C)CO)C(=O)c2cc(NC(=O)C3CCCCC3)ccc2O1
  Ran FRET = -5.1
mol: C[C@H]1CN([C@@H](C)CO)C(=O)c2cccc(NC(=O)NC3CCCCC3)c2O[C@H]1CN(C)S(=O)(=O)c1cn(C)cn1
  Ran FRET = -1.1
mol: CC(C)NC(=O)N(C)C[C@@H]1OCCCC[C@@H](C)Oc2ccc(NC(=O)c3ccccc3)cc2C(=O)N([C@@H](C)CO)C[C@@H]1C
  Ran FRET = -1.3
mol: COc1ccccc1CN(C)C[C@@H]1OCc2cnnn2CCCC(=O)N([C@H](C)CO)C[C@@H]1C
  Ran FRET = 0.7
mol: CNC[C@H]1OCCCC[C@@H](C)Oc2ccc(NS(=O)(=O)c3cccs3)cc2C(=O)N([C@@H](C)CO)C[C@H]1C
  Ran FRET = 9.1
mol: CNC[C@@H]1OCCCC[C@@H](C)Oc2ccc(NC(=O)Nc3ccccc3)cc2C(=O)N([C@H](C)CO)C[C@H]1C
  Ran FRET = -2.6

Three entries from above in a different format:
smiles,Ran FRET
C[C@H](CO)N1C[C@H](C)[C@H](CN(C)C(=O)Nc2ccc3c(c2)OCO3)Oc2c(NS(=O)(=O)c3ccccc3)cccc2C1=O,-0.2
C[C@H](CO)N1C[C@H](C)[C@H](CN(C)C(=O)c2ccccc2)OCCCC[C@H](C)Oc2ccc(NC(=O)Nc3ccc4c(c3)OCO4)cc2C1=O,-0.5
C[C@@H]1CN([C@H](C)CO)C(=O)Cc2cc(NC(=O)Nc3ccccc3)ccc2O[C@H]1CN(C)C(=O)Nc1ccc(F)cc1,2.7

Compounds from the list above containing a thiophene ring, fused or not, in the order listed:
mol: C[C@@H]1CN([C@H](C)CO)C(=O)c2cccc(NC(=O)Nc3ccc(C(F)(F)F)cc3)c2O[C@H]1CN(C)S(=O)(=O)c1cccs1
  Ran FRET = 1.3
mol: C[C@@H]1CN([C@H](C)CO)C(=O)c2cc(NC(=O)Cc3ccccc3)ccc2O[C@@H](C)CCCCO[C@H]1CN(C)S(=O)(=O)c1cccs1
  Ran FRET = -1.0
mol: CC(C)NC(=O)N(C)C[C@@H]1OCCCC[C@H](C)Oc2ccc(NS(=O)(=O)c3cccs3)cc2C(=O)N([C@H](C)CO)C[C@@H]1C
  Ran FRET = 6.0
mol: CNC[C@H]1OCCCC[C@@H](C)Oc2ccc(NS(=O)(=O)c3cccs3)cc2C(=O)N([C@@H](C)CO)C[C@H]1C
  Ran FRET = 9.1

The list goes on.
mol: C[C@H](CO)N1C[C@H](C)[C@H](CN(C)C(=O)NC2CCCCC2)Oc2c(NS(=O)(=O)c3ccc(F)cc3)cccc2C1=O
  Ran FRET = -2.2
mol: C[C@@H]1CCCCO[C@H](CN(C)C(=O)c2ccccc2)[C@H](C)CN([C@@H](C)CO)C(=O)c2cc(NC(=O)Nc3ccc(F)cc3)ccc2O1
  Ran FRET = -0.2
mol: C[C@H]1CN([C@@H](C)CO)C(=O)c2cccc(NC(=O)NC3CCCCC3)c2O[C@H]1CN(C)C
  Ran FRET = 4.2
mol: C[C@H](CO)N1C[C@H](C)[C@@H](CN(C)Cc2ccccc2)Oc2ccc(NS(=O)(=O)c3cccs3)cc2CC1=O
  Ran FRET = -6.6
mol: COc1ccc(NC(=O)N(C)C[C@@H]2Oc3ccc(NS(=O)(=O)c4ccccc4)cc3C(=O)N([C@H](C)CO)C[C@@H]2C)cc1
  Ran FRET = -1.7
mol: C[C@H](CO)N1C[C@H](C)[C@@H](CN(C)CC2CC2)Oc2c(NC(=O)c3cnccn3)cccc2C1=O
  Ran FRET = 0.4
mol: Cc1noc(C)c1S(=O)(=O)N(C)C[C@H]1OCc2cnnn2CCCC(=O)N([C@@H](C)CO)C[C@H]1C
  Ran FRET = 1.3
mol: COc1ccc(NC(=O)Nc2cccc3c2O[C@@H](CN(C)C)[C@@H](C)CN([C@@H](C)CO)C3=O)cc1
  Ran FRET = -2.9
mol: C[C@@H]1CN([C@@H](C)CO)C(=O)c2cc(NC(=O)CCCN(C)C)ccc2O[C@@H]1CN(C)Cc1ccc(C(=O)O)cc1
  Ran FRET = -0.9
mol: C[C@@H]1CN([C@H](C)CO)C(=O)CCCn2cc(nn2)CO[C@@H]1CN(C)C(=O)c1cc(-c2ccccc2)on1
  Ran FRET = 4.1

mol: C[C@@H]1CCCCO[C@@H](CN(C)C(=O)C2CCCCC2)[C@H](C)CN([C@H](C)CO)C(=O)c2cc(N(C)C)ccc2O1
  Ran FRET = 2.0
mol: C[C@@H]1CCCCO[C@@H](CN(C)S(=O)(=O)c2cccs2)[C@H](C)CN([C@H](C)CO)C(=O)c2cc(NC(=O)Cc3ccccc3)ccc2O1
  Ran FRET = 6.0
mol: C[C@@H]1CCCCO[C@@H](CN(C)S(C)(=O)=O)[C@@H](C)CN([C@H](C)CO)C(=O)c2cc(NS(=O)(=O)c3ccccc3)ccc2O1
  Ran FRET = -2.0
mol: Cc1noc(C)c1NC(=O)Nc1ccc2c(c1)CC(=O)N([C@H](C)CO)C[C@H](C)[C@@H](CN(C)C)O2
  Ran FRET = 0.8
mol: C[C@H]1CN([C@@H](C)CO)C(=O)c2cccc(NC(=O)NC3CCCCC3)c2O[C@@H]1CN(C)S(=O)(=O)c1ccc(Cl)cc1
  Ran FRET = 0.4
mol: C[C@H]1CN([C@@H](C)CO)C(=O)CCCn2nncc2CO[C@H]1CN(C)C(=O)Nc1ccc(N2CCN(C)CC2)cc1
  Ran FRET = 0.4
mol: C[C@@H]1CN([C@@H](C)CO)C(=O)c2cc(NC(=O)Nc3ccccc3)ccc2O[C@@H]1CN(C)Cc1ccncc1
  Ran FRET = 0.2
mol: COc1ccc(NC(=O)Nc2ccc3c(c2)C(=O)N([C@@H](C)CO)C[C@H](C)[C@H](CN(C)S(=O)(=O)c2cccs2)O3)cc1
  Ran FRET = 0.9
mol: CNC[C@H]1Oc2ccc(NC(=O)Nc3ccc4c(c3)OCO4)cc2CC(=O)N([C@@H](C)CO)C[C@H]1C
  Ran FRET = -2.0
mol: C[C@H]1CN([C@@H](C)CO)C(=O)CCCn2cc(nn2)CO[C@H]1CN(C)Cc1ccncc1
  Ran FRET = 0.0

mol: C[C@@H]1CN([C@H](C)CO)C(=O)c2cccc(NS(C)(=O)=O)c2O[C@@H]1CN(C)Cc1ccc(Cl)c(Cl)c1
  Ran FRET = 6.0
mol: C[C@@H]1CN([C@H](C)CO)C(=O)c2cc(NC(=O)CCCN(C)C)ccc2O[C@@H](C)CCCCO[C@H]1CN(C)Cc1ccccc1
  Ran FRET = -4.4
mol: C[C@@H]1CN([C@@H](C)CO)C(=O)c2cc(NS(=O)(=O)c3cccs3)ccc2O[C@@H]1CN(C)C(=O)NC1CCCCC1
  Ran FRET = -1.2
mol: C[C@@H]1CCCCO[C@H](CN(C)C(=O)c2ccccc2)[C@H](C)CN([C@@H](C)CO)C(=O)c2cc(NS(=O)(=O)c3cn(C)cn3)ccc2O1
  Ran FRET = 1.5
